gsp antag: qHTS for Antagonists of gsp, the Etiologic Mutation Responsible for Fibrous Dysplasia/McCune-Albright Syndrome: qHTS; gsp-mutant cells, cAMP HTRF, 30 min; control for the full effect not named in the record; Potency, µM (highest dose often 76.9 µM), without a hit: top-dose activity change, negative = inhibition, most hits filed as inhibitors; actives 0.4% (n = 340,000); AID 624288, 2012; active = falling curve of any shape with a large fitted effect; inconclusive = falling curve, mostly with a smaller effect; inactive = flat or rising curve; cell line not stated here;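 also: intracellular cAMP measured with PDE inhibitor Ro 20-1724 present during compound exposure; potency is read from the fitted curve at half-maximal effect; % is scaled to controls: 0 for no effect and ±100 for the full control effect; nearly all actives have a fitted effect of over 65% in size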
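Cells in G418 medium, seeded 16-24 h, 37C; buffer exchange to DPBS + 1 mM CaCl2, 0.5 mM MgCl2, 0.05% BSA; cpds in DMSO + […] (300 uM stock), 30 min 37C; HTRF cAMP detection.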
Menin-MLL FL inh: qHTS Assay for Inhibitors Targeting the Menin-MLL Interaction in MLL Related Leukemias: Competition With Fluorescein Labeled MLL-derived Peptide; 290,000 tested, under 10 active; Fluorescence polarization, fluorescein-MLL peptide displacement from menin; FP activity change, % at 61.4 µM; inconclusive = falling polarisation curve, or a change in total fluorescence; inactive = total fluorescence flat and polarisation flat or rising; no compound was filed as active; the % refers to the polarisation; negative = inhibition;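 also: % of control where 0% means no effect; inhibitors lower the polarisation; unlabelled MLL peptide was the positive control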
TRPML1 inh: qHTS for Inhibitors of the Human Mucolipin Transient Receptor Potential 1 (TRPML1); activity change, negative = inhibition, % (test concentration not listed); Mucolipin-1 (Homo sapiens), Q9GZU1; AID 624415, 2012; TRPML1-inducible cells, Ca2+ dye fluorescence, FDSS; stronger effect = lower value; inhibition of EC80 agonist-evoked calcium signal; actives 0.02% (n = 390,000); in the data active means activity change below about -50%; inconclusive means about -30% to -50%; inactive means above about -30%;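 also: stimulus is agonist 54-4 at its EC80 concentration; % is scaled to controls: 0 for no effect and ±100 for the full control effect; compound concentration not given in the record; the text of the record puts the active cut at -80%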
Target sequence (Q9GZU1 whole entry, looked up): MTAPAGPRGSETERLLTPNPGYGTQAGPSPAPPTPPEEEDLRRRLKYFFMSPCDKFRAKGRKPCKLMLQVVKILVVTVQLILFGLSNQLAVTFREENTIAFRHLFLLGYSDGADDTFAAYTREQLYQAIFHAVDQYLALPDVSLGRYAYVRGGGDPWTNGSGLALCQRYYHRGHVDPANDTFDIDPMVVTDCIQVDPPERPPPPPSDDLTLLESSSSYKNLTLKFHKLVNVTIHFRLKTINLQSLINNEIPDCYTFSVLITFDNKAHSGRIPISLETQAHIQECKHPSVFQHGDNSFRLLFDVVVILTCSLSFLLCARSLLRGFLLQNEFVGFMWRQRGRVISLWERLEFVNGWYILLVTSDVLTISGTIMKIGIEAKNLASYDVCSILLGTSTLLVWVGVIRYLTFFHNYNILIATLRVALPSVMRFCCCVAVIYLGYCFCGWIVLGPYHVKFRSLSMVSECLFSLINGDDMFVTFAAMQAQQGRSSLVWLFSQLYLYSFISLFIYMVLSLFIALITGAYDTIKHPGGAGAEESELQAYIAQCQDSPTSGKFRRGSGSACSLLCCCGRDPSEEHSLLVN
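Calcium fluorescence in TRPML1-DL cells induced overnight with Tet: a 110 s read after compound pin addition, then a 110 s antagonist read after challenge with 54-4 at 4 uM final (EC80).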
gsp agonist: qHTS for Agonist of gsp, the Etiologic Mutation Responsible for Fibrous Dysplasia/McCune-Albright Syndrome: qHTS | Potency, µM (doses to about 76.9 µM), for the others: top-dose activation (cAMP increase), actives largely listed as activators | actives 0.13% (n = 340,000) | gsp mutant cells, cAMP HTRF, 30 min; control for the full effect not named in the record; active = well fitted activation curve with a large enough effect; inconclusive = small, poorly fitted or top-dose-only effect, or another doubt; inactive = no such curve, though single readings can be large or run the other way; cell line not stated here;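 also: phosphodiesterase inhibitor Ro 20-1724 added with compounds to block cAMP breakdown; potency is read from the fitted curve at half-maximal effect; nearly all actives have a fitted effect of over 60% in size; about a fifth of the inactives were tested at one dose only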
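Cells stably selected in G418 were plated at 2000/well, grown 16-24 hr, then given compounds in DMSO with the PDE inhibitor […] (300 uM solution added) for 30 min at 37C; cAMP was read by HTRF.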
TRPML1 ag: qHTS for Agonists of the Human Mucolipin Transient Receptor Potential 1 (TRPML1); actives 0.12% (n = 410,000); activation, % (no concentration beside the values); AID 624414, 2012; Mucolipin-1 (Homo sapiens), Q9GZU1; TRPML1-expressing cells, Ca2+ dye fluorescence, FDSS; host cell line not named in the record; reference of the full effect not given here; in the data active = activation above about 50%; inconclusive = about 30% to 50%; inactive = below about 30%; also: 0% is about no effect; the text of the record puts the active cut at 80%
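Kinetic FDSS Ca2+ read in Tet-induced TRPML1-DL cells (ABD Ca8 dye plus quencher, 45-90 min RT loading): baseline, then compound, then 110 s agonist window; EC80 agonist 54-4 at 4uM final added afterwards for a 110 s antagonist window.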
ClpP mod: qHTS Assay for Activators of ClpP; purified B. subtilis ClpP, FRET peptide cleavage, 20 min; Potency, µM (series often up to 57.5 µM), for the others: at the highest dose activity change, negative = active; actives 1.9% (n = 340,000); AID 651965, 2013; active = well fitted falling curve with a large enough effect; inconclusive = small, poorly fitted or top-dose-only effect; inactive = no such curve, though single readings can be large or run the other way; also: potency is read from the fitted curve at half-maximal effect; the source files actives as falling curves though it sought activators and does not explain the sign; nearly all actives have a fitted effect of over 65% in size; many hits overshoot -100%
Target sequence (P80244 whole entry, looked up): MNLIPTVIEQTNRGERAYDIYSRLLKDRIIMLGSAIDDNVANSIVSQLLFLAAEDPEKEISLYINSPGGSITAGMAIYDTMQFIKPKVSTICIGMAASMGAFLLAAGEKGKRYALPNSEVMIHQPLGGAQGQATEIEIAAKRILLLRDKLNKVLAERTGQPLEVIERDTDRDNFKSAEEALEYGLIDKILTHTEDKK
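FRET quenching reversal measured ClpP activation: 10 microg/mL B. subtilis ClpP at pH 8 with the FRET-FV decapeptide, read at 430 nm after 320 nm excitation. The 20-min minus 0-min signal was scaled between DMSO/no-enzyme wells and ADEP (5.8 microM final).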
Numbers without * were called inactive; ? = inconclusive; . = not tested or not shown; & = joins results of further samples; [ ] = dose if it differs, or a comment.

item	Compound	gsp agonist	TRPML1 ag	gsp antag	ClpP mod	TRPML1 inh	Menin-MLL FL inh
1	O=C(COC(=O)CNC(=O)c1ccccc1)NCCNC(=O)COC(=O)CNC(=O)c1ccccc1	-26%	-0.3	3%	-1.6%	1	.
2	Cc1c(O)c(=O)ccn1Cc1ccccc1	-38%[inhibitor]	-0.5	13%	-2.3%	0	-0.3[11.7 µM]
3	CN(C)c1ccc(CNC(=O)C2CCN(C(=O)c3ccc(-n4ccc5ccccc54)s3)CC2)cc1	.	1.2	.	?	-2	.
4	O=C(CCn1c(=O)oc2ccccc21)Nc1ccc2c(c1)OCCO2	-23%	-0.2	-1%	-1.4%	8	-0.1
5	O=c1cc(CN2CCC3(CC2)OCCO3)c2c(ccc3ccccc32)o1	0%	-0.9	?	-9.1%	0	4.2
6	COc1cccc(-n2nc(-c3ccnn3-c3ccc(F)cc3)c(=O)n(C)c2=O)c1	1%	1.2	-17%	5.2%	?	-0.8
7	COc1cccc(C2C(C(=O)c3cccs3)=C(O)C(=O)N2c2cc(C)on2)c1 (centres undefined)	?	-0.1	4%	0.2%	45	9.4
8	CC(C)(C)CC(=O)Nc1nc(C(N)Cc2ccc(C(F)(F)F)cc2)cs1 (centres undefined)	.	2.9	.	-1.7%	22	.
9	Cc1ccc(-n2c(=O)c3cccnc3n2CC(=O)Nc2cccc(C)c2C)cc1	.	1.8	.	4.3%	32	.
10	COc1ccc(NC(=O)Cn2nnc(C(=O)NCc3ccccc3Cl)c2N)cc1Cl	.	2.7	.	-0.9%	12	.

Complete entries as entered above. Order of screens: gsp agonist, TRPML1 ag, gsp antag, ClpP mod, TRPML1 inh, Menin-MLL FL inh
Profile of O=C(COC(=O)CNC(=O)c1ccccc1)NCCNC(=O)COC(=O)CNC(=O)c1ccccc1 : -26%, -0.3, 3%, -1.6%, 1, .
Profile of Cc1ccc(-n2c(=O)c3cccnc3n2CC(=O)Nc2cccc(C)c2C)cc1 : ., 1.8, ., 4.3%, 32, .

(cont.)
item	Compound	gsp agonist	TRPML1 ag	gsp antag	ClpP mod	TRPML1 inh	Menin-MLL FL inh
11	O=C(CNC(=O)c1cccs1)NCC(=O)OCc1c(Cl)cccc1Cl	13%	-0.4	2%	0.2%	-8	0.8
12	CC12CCC(C(=O)Nc3ccccc3-n3cccc3)(CC1=O)C2(C)C (centres undefined)	6%[15.4 µM]	0.8	-7%	.	16	-3.0
13	Cc1cc(NC(=O)c2ccc(F)cc2)ccc1NC(=O)c1ccco1	0%[15.4 µM]	-0.1	4%	.	7	-0.8
14	CC(C)(C)c1nc(-c2ccccc2)nc2c1OCCC2	12%	-0.2	3%	1.2%	-11	.
15	O=C(CN1CCN(S(=O)(=O)c2ccc(Br)cc2)CC1)N/N=C/c1ccc(Br)s1	-15%[15.4 µM]	3.8	-29%	.	0	-6.4
16	COc1ccc(C(C(=O)Nc2ccc(C(C)C)cc2)N(C)C(=O)c2ccc(=O)[nH]c2)cc1 (centres undefined)	-4%[15.4 µM]	-0.2	-6%	.	7	-2.0
17	CN(C)c1ccc(-c2ccc3c(=O)c4ccccc4n(C)c3c2)cn1	.	-0.1	-28%	?	7	4.3
18	C=CCOc1ccc(/C=C/C(=O)OCC(=O)NCc2cccs2)cc1	-60%[inhibitor]	0.8	4%	-14%	14	.
19	Cc1ccc(S(=O)(=O)N(C)c2ccc(C(=O)NCC(c3ccco3)N3CCCC3)cc2)cc1 (centres undefined)	-3%	0.0	.	-3.4%	4	.
20	C=CCN(c1cccc(C(F)(F)F)c1)S(=O)(=O)c1cccc(C(=O)OCC(=O)NCCC)c1	-2%[15.4 µM]	3.0	-14%	.	-18	4.7
21	COc1ccc(CCNC(=O)CCC(=O)c2cccs2)cc1OC	-3%	0.5	9%	-1.8%	8	.
22	c1ccc(Cc2nnc3sc(-c4ccncc4)nn23)cc1	11%	-0.2	5%	1.1%	6	-2.8
23	O=C1c2ccccc2NC(c2ccccc2O)N1NS(=O)(=O)c1ccccc1 (centres undefined)	-2%	-0.7	0%	.	4	0.7
24	COC(=O)C1=C(C)OC(N)=C(C#N)C1C1CCCCC1 (centres undefined)	-18%	1.1	-15%	-1.7%	-17	2.6
25	O=C(Nc1ccc(F)cc1)NC1CCCCCCC1	15%	0.0	-1%	-1.8%	-15	-3.9
26	Cc1nc2c(OCC(=O)c3ccc(F)cc3)cccn2c1N(C)Cc1cccs1	.	-0.6	.	?	-30	.
27	CCOc1ccc(NC(=O)CN(C)C(=O)c2ccccc2OCc2cccc(C)c2)cc1OCC	-2%	4.3	-10%	-2.4%	-24	.
28	CC(=O)c1cc(C#N)c(SCC(=O)OC(C)C)nc1C	-23%	4.3	-4%	0.2%	-14	5.8
29	O=C(CNC(=O)C1CCCCC1)Nc1cc(Cl)cc(Cl)c1	2%	0.2	-4%	3.0%	2	0.3
30	CC(C)(Cc1ccc(O)cc1)NC(=O)CC(=O)N/N=C/c1ccc([N+](=O)[O-])cc1	-22%	-0.2	6%	.	-3	-3.5
31	CC12CCC(c3nnc(SCC(=O)Nc4cccc5ccccc45)nc31)C2(C)C (centres undefined)	-3%	0.9	-8%	-0.3%	5	3.0
32	Cc1cc(NC(=O)COC(=O)[C@H](Cc2ccccc2)NC(=O)c2ccco2)no1	?	8.9	?	.	5	.
33	CC(NC(=O)COC(=O)c1ccc[nH]c1=O)c1ccccc1 (centres undefined)	-1%	-0.4	5%	.	11	.
34	COC(=O)c1ccc(OS(=O)(=O)N(C)C)cc1	-4%	-0.9	13%	1.0%	0	-6.1
35	COCCCn1c(CCC(=O)O)ccc1-c1ccc(F)cc1	-12%	0.5	-8%	32µM*	12	-0.8
36	O=C(CN1C(=O)c2ccccc2S1(=O)=O)Nc1ccccc1	-2%	5.0	1%	-1.1%	10	-5.5
37	OCCCNC(=S)Nc1ccc(Nc2ccccc2)cc1	-22%[15.4 µM]	-0.2	2%	.	21	1.2
38	Cc1ccc(N(CC(N)=O)C2SC(=O)NC2=O)cc1 (centres undefined)	-23%	-0.1	-1%	-1.7%	12	7.4
39	Cc1ccc(N2C(=O)c3n[nH]c(C)c3C2c2ccc(Cl)cc2)cc1 (centres undefined)	.	0.1	.	-0.4%	-9	.
40	COc1ccc(Cc2nc3ccc(C(=O)NC(C)c4cn(C)nc4C)cc3o2)cc1 (centres undefined)	1%	0.7	-17%	-3.2%	9	.
41	CC1Cc2ccccc2N1C(=O)c1ccc2nccnc2c1 (centres undefined)	-42%	-0.6	4%	1.0%	-7	.
42	COc1ccc(-c2cc(C(F)(F)F)n3nc(C)cc3n2)cc1	0%	0.2	-2%	65%	44	5.1
43	COc1cc(OC)cc(-c2nnc(SCC(=O)N3CCCCC3)o2)c1	?	0.6	-12%	-1.0%	27	1.3
44	Cc1cc(C)n(-c2nc(N(c3ccccc3)c3ccccc3)nc(-n3nc(C)cc3C)n2)n1	8%	2.4	?	-1.4%	24	-1.2
45	CC(NCc1cccs1)C(=O)NC1CCCCC1 (centres undefined)	-48%[inhibitor]	0.8	6%	.	-13	-2.2
46	O=C(CN1CCN(Cc2ccccc2)CC1)NC(=O)NCc1ccco1	-3%	-0.4	9%	-2.8%	-14	-2.9
47	Nc1nn(-c2cccc(F)n2)cc1-c1ccccc1	-22%[15.4 µM]	0.0	.	.	22	-0.1
48	Cc1ccc(NC(=O)Cn2cnc3sc(C(=O)O)c(C)c3c2=O)cc1Cl	.	-0.2	.	0.2%	-14	.
49	CN1CCC(N(C)C(=O)c2ccc(Cl)c(S(=O)(=O)Nc3cc(Cl)ccc3Cl)c2)CC1	5%	-0.3	-11%	-0.3%	5	.
50	CCOCC(O)CS(=O)Cc1ccccc1 (centres undefined)	9%	0.7	9%	-0.9%	-9	2.4
51	COc1ccc(S(=O)(=O)N2CCCCCC2)cc1C(=O)N1CCCCC1	3%	0.4	-7%	1.2%	1	.
52	Cc1c(C(=O)O)[nH]c2ccc([N+](=O)[O-])cc12	-2%[15.4 µM]	-0.6	2%	.	50	-15
53	CCOC(=O)c1oc2ccccc2c1COC(=O)CNC(=O)c1cccc(C)c1	-18%	-0.3	-10%	-20%	2	.
54	CN(c1ncnc2onc(-c3cccc(Cl)c3)c12)C1CCCCC1	.	4.6	.	-6.3%	-2	.
55	CCC(=O)Nc1nc(-c2ccccc2)ns1	-21%	-0.1	-5%	0.4%	5	0.1
56	COc1ccc(C(C)n2c(C)c3c(C)nnc(C)c3c2C)cc1 (centres undefined)	-41%[inhibitor]	-0.4&0.8	-12%	-20%&-16%	11&-29	6.5
57	COc1ccc(C(c2sc3nc(C)nn3c2O)N2CCC(O)CC2)cc1OC (centres undefined)	-29%	0.0	5%	1.0%	5	3.1
58	Cc1nn(-c2ccccc2)c(N)c1N=Nc1ccc(Cl)cc1	-8%	1.1	-4%	.	31	-0.3
59	OCC(O)CN(c1ccccc1)c1ccccc1 (centres undefined)	19%[15.4 µM]	-0.5	3%	-2.4%	16	-1.9
60	CC(=O)c1ccc(NC(=S)N2CCC(Cc3ccccc3)CC2)cc1	-4%[15.4 µM]	0.8	-19%	-3.8%	-14	-2.2

Other entries
item	Compound	gsp agonist	TRPML1 ag	gsp antag	ClpP mod	TRPML1 inh	Menin-MLL FL inh
61	COCCN1CCc2[nH]c(=S)[nH]c(=O)c2C1	-6%	-0.2	17%	?	2	2.0
62	COc1ccc(-n2c(=O)c3c4c(sc3n3c(=S)[nH]nc23)CCC4)cc1	-3%[15.4 µM]	1.9	-27%	.	0	1.1
63	COc1cc(C(=O)NCc2nnc(SCC(=O)Nc3cc(C)on3)o2)cc(OC)c1OC	-20%[15.4 µM]	-0.2	7%	.	1	-0.5
64	NS(=O)(=O)c1ccc(NC(=O)COC(=O)COc2ccc3ccccc3c2)cc1	-6%[15.4 µM]	0.1	6%	-1.8%	-9	5.5
65	CC(NC(=O)c1cccc(S(=O)(=O)N2CCN(C)CC2)c1)c1ccc(Cl)cc1Cl (centres undefined)	?	1.6	8%	?	29	.
66	O=C(CC1Oc2ccc(Cl)cc2NC1=O)NC1CCCCCC1 (centres undefined)	?	0.5	1%	0.7%	7	3.5
67	COc1cc(OC)c2c(=O)cc(-c3ccccc3)oc2c1	.	.	-1%	-22%	.	0.3
68	COc1cc(C)c(S(=O)(=O)N2CCOCC2)c(C)c1C	-13%[15.4 µM]	-0.1	10%	.	1	1.8
69	Cc1ccc(OCCSc2nc3ccccc3n2CC(=O)NC(C)C)cc1	.	-0.7	.	1.0%	5	.

From PubChem
